PINK1 expr mod = A Quantitative High throughput Screen to Identify Chemical Modulators of PINK1 Expression; PINK1 immunofluorescence, high-content cytometry, 24 h; Potency, µM (series often up to 76.6 µM), for the others: at the highest dose activation (PINK1 increase), actives largely listed as activators; 410,000 compounds, 0.2% hits; active = well fitted activation curve with a large enough effect; inconclusive = small, poorly fitted or top-dose-only effect; inactive = flat fitted curve, though single readings scatter; cell line not stated here;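 further: % of control where 0% means no effect; nearly all actives have a fitted effect of over 65% in size; a mitochondrial uncoupler was the plate control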
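Fluorescence from anti-PINK1 antibody, together with nuclear and cell stains, was scanned on a laser-scanning cytometer. Before staining, stable-line cells were incubated 24 hours with compounds at 5 concentrations; primary antibody 12 h at 10 degrees C.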
* hit, by the source's call; & = joins results of further samples. Potency means the concentration at half of the fitted maximal effect. These rows are one share of the data. The share of hits here may be higher or lower than overall.

CC(C)CN1CCC2(CC1)CCN(C(=O)c1ccncc1)CC2
  PINK1 expr mod: -0.7%
CC(=O)c1ccc(F)c(-c2cc(C)cc3c2OC(CNC(=O)c2ccnn2C)C3)c1 (stereo not given)
  PINK1 expr mod: -0.5%
CC(C)NC(=O)N1CCC2(CC1)CCN(C(=O)c1ccco1)CC2
  PINK1 expr mod: 1.6%
OC(c1cccnc1)c1ccc2c(c1)CN(Cc1cn(-c3ccccc3)nc1-c1ccccc1)CCO2 (stereo not given)
  PINK1 expr mod: -0.1%
CN(C)C(=O)c1ccc(-c2ccc3ncnc(NC4CCNCC4)c3c2)cc1
  PINK1 expr mod: 0.2%
COc1ccc2c(c1)-c1nc(-n3ncc(C(=O)NC(C)(C)CO)c3C3CC3)ncc1CC2
  PINK1 expr mod: -0.5%
COc1ccccc1CNc1ncncc1-c1cccc(C#N)c1
  PINK1 expr mod: -1.1%
Cc1noc(C)c1-c1nc(NCc2cccnc2)c2ccccc2n1
  PINK1 expr mod: -1.8%
COc1ccc(OC)c(C(=O)N(Cc2cc3cccc(C)c3nc2N2CCC(O)CC2)C2CC2)c1
  PINK1 expr mod: 1.1%
N#CCCn1c(=O)c(-c2ccccc2)nc2cnc(OCc3ccccc3)nc21
  PINK1 expr mod: 3.4%
CN(C)c1ccc(-c2nc(NCc3cccnc3)c3ccccc3n2)cc1
  PINK1 expr mod: 0.6%
Cc1ccc(CNc2nc(C)c(-c3ccn(CCN4CCOCC4)n3)s2)o1
  PINK1 expr mod: -0.8%
CC(C)(O)C1CC[C@@]2(C)C3CCC4[C@@]5(C)CCCC(C)(C)C5C(O)C[C@]4(C)[C@]3(C)CC[C@@H]12 (stereo not given in full)
  PINK1 expr mod: -0.6%
O=S(=O)(c1ccccc1)N1CCC2(CCCN(c3ncccn3)C2)CC1
  PINK1 expr mod: -0.3%
Cc1c(C(=O)N2CCOc3ccccc3C2)sc2ncnc(NCCCN3CCOCC3)c12
  PINK1 expr mod: 0.0%

O=c1c(-c2cc(F)cc(F)c2)nc2cncnc2n1Cc1ccccc1Cl
  PINK1 expr mod: -0.2%
COc1cc(=O)n2c(c1C(=O)N(C)Cc1nonc1C)CCN(Cc1ccccc1Cl)CC2
  PINK1 expr mod: 0.2%
O=S(=O)(NCC1CN(S(=O)(=O)c2ccc3c(c2)OCCO3)C1)c1c(F)cccc1F
  PINK1 expr mod: 1.2%
COC(=O)C1CCN(Cc2ccc3c(c2)CN(C(=O)c2sc(C)nc2C)CCO3)CC1
  PINK1 expr mod: -0.2%
N#Cc1ccc(CN2CCC3(CC2)CCN(C(=O)c2ccco2)CC3)cc1
  PINK1 expr mod: -0.7%
CC(C)CN1CCC2(CC1)CCN(C(=O)c1csnn1)CC2
  PINK1 expr mod: -0.2%
Cc1cnc(CNC(=O)c2c3n(c(C)cc2=O)-c2ccccc2SC(c2ccsc2)C3)cn1 (stereo not given)
  PINK1 expr mod: 0.8%
O=C(Nc1ccccc1)N1CC2(CCN(C(=O)c3cnccn3)CC2)C1
  PINK1 expr mod: -0.7%
CSc1nc(C(=O)N2CCc3c(cnc(C)c3CNC(=O)c3ccc4c(c3)OCO4)C2)cs1
  PINK1 expr mod: 0.0%
Cc1nc2cnc(N3CCOCC3)nc2n(CCC#N)c1=O
  PINK1 expr mod: -0.1%
O=C(Nc1cccc(F)c1)N1CCCC2(CCN(C(=O)c3cnccn3)CC2)C1
  PINK1 expr mod: -1.2%
Cc1cnc(SCc2ccccn2)nc1C1CCCN(C(=O)c2ccc3c(c2)OCCO3)C1 (stereo not given)
  PINK1 expr mod: 0.0%
CCN(CC)C1CCN(C(=O)c2cnn(-c3nccc(-c4ccccc4OC)n3)c2-c2ccco2)C1 (stereo not given)
  PINK1 expr mod: 0.4%
O=C(NC[C@@H]1CCCN2CCCC[C@H]12)c1cnn(-c2nccc(-c3ccco3)n2)c1C1CC1
  PINK1 expr mod: 0.5%
O=C(c1ccco1)N1CCC2(CCN(Cc3ccccc3)CC2)CC1
  PINK1 expr mod: -0.8%

Cc1nc(C)n(CC(=O)N2CCOc3ccc(CN4CCN(C)C[C@@H]4c4ccccc4)cc3C2)n1
  PINK1 expr mod: 0.1%
CC12CCC3C(CC3(C)C)C(C)(CCC1=O)O2 (stereo not given)
  PINK1 expr mod: -1.1%
Nc1nc2ncc(=O)[nH]c2c(=O)[nH]1
  PINK1 expr mod: -1.1%
N#Cc1cccc(-c2ccc3ncnc(NCCN4CCOCC4)c3c2)c1
  PINK1 expr mod: -0.4%
N#Cc1cccc(NC(=O)N2CCC3(CC2)CCN(C(=O)c2ccco2)CC3)c1
  PINK1 expr mod: 0.2%
COc1cccc(Nc2ncc3nc(-c4cc(F)cc(F)c4)c(=O)n(C4CC4)c3n2)c1
  PINK1 expr mod: 1.1%
COc1ccccc1CNc1ncnc2ccc(-c3ccc(N(C)C)cc3)cc12
  PINK1 expr mod: 5.5%
Cc1cnc(C)c(-c2ccc(O)c(CN3CCN(C=O)CC3)c2)n1
  PINK1 expr mod: -0.6%
Cc1cc(C(=O)Nc2ccccc2-c2nc(CNC(=O)C3(C)CCCCC3)c(C)o2)c(C)o1
  PINK1 expr mod: -0.7%
O=c1c(-c2cccs2)nc2cnc(N3CCNCC3)nc2n1Cc1cccs1
  PINK1 expr mod: 0.9%
CCC1(C2CCN(C(=O)c3ccc(C)cc3C)CC2)NC(=O)N(CCc2scnc2C)C1=O (stereo not given)
  PINK1 expr mod: -0.5%
O=C(OCC#CCSc1nnc(-c2cccc3ccccc23)o1)c1ccc(Br)cc1
  PINK1 expr mod: 0.5%
O=C(c1cnccn1)N1CCC2(CCN(Cc3ccccc3)CC2)CC1
  PINK1 expr mod: 1.1%
NC(=O)c1ccc(-c2noc(-c3cccc(Cl)c3)n2)cc1
  PINK1 expr mod: -0.6%
Cc1cc2c(c(-c3cnccn3)c1)OC(CNC(=O)c1ccccc1C(F)(F)F)C2 (stereo not given)
  PINK1 expr mod: 1.2%

COc1ccccc1CNc1cc(-c2ccccc2C)ncn1
  PINK1 expr mod: -0.4%
CN1CCN(c2nc(-c3cccc(NS(C)(=O)=O)c3)nc3ccccc23)CC1
  PINK1 expr mod: -0.9%
Cc1noc(C)c1-c1ccc2ncnc(NCC3CCCCN3C)c2c1 (stereo not given)
  PINK1 expr mod: 1.1%
OC(c1cccnc1)c1ccc2c(c1)CN(Cc1cccc3c1OCO3)CCO2 (stereo not given)
  PINK1 expr mod: 0.3%
CN(C)C(=O)c1ccc(-c2cc(-n3ccnc3)ncn2)cc1
  PINK1 expr mod: -1.0%
Cc1c(C(=O)NCC2Cc3cccc(-c4cncnc4)c3O2)c(-c2ccccc2)nn1-c1ccccc1 (stereo not given)
  PINK1 expr mod: -0.5%
COc1cccc(-c2ccc3ncnc(NCc4cccs4)c3c2)c1
  PINK1 expr mod: 0.0%&-0.8%
O=C(c1cc(C(F)(F)F)cc(C(F)(F)F)c1)N1CCC2(CCCN(c3ccccn3)C2)CC1
  PINK1 expr mod: -0.3%
Cc1c(C(=O)N2CCC(Cc3ccccc3)CC2)sc2ncnc(NCc3ccccn3)c12
  PINK1 expr mod: -0.3%
NC(=O)NCC(N)C(=O)O (stereo not given)
  PINK1 expr mod: 0.4%
COC(=O)N1CCC2(CCN(Cc3ccc(C#N)cc3)CC2)CC1
  PINK1 expr mod: 1.1%
O=c1c(-c2ccc(F)cc2)nc2cnc(N3CCNCC3)nc2n1C1CC1
  PINK1 expr mod: 0.9%
Cc1cccc(CNc2ncncc2-c2ccc3c(c2)OCO3)c1
  PINK1 expr mod: 1.7%
O=c1c(-c2cccs2)nc2cnc(N3CCNCC3)nc2n1-c1ccccc1
  PINK1 expr mod: 0.4%
O=c1c(-c2cccs2)nc2cnc(N3CCOCC3)nc2n1-c1ccccc1
  PINK1 expr mod: 6.3%

Molecules from the list above with a Cl atom (three):
O=c1c(-c2cc(F)cc(F)c2)nc2cncnc2n1Cc1ccccc1Cl
  PINK1 expr mod: -0.2%
COc1cc(=O)n2c(c1C(=O)N(C)Cc1nonc1C)CCN(Cc1ccccc1Cl)CC2
  PINK1 expr mod: 0.2%
NC(=O)c1ccc(-c2noc(-c3cccc(Cl)c3)n2)cc1
  PINK1 expr mod: -0.6%

(more compounds)
Cc1cccc(C(=O)NCc2nc(-c3cccc(NC(=O)C4CCCN(C)C4)c3)oc2C)n1 (stereo not given)
  PINK1 expr mod: -1.0%
COCc1ccc(CN2CCOc3c(O)cc(-c4cc(C)c5ccc(F)cc5n4)cc3C2)o1
  PINK1 expr mod: 1.6%
Cc1nc2cnc(N3CCNCC3)nc2n(Cc2ccc(F)cc2)c1=O
  PINK1 expr mod: -0.6%
O=C(Oc1ccccc1)N1CCC[C@@]2(CCN(c3ccccc3)C2)C1
  PINK1 expr mod: 0.9%
COc1ccc(CNc2nc(-c3ccccc3CN(C)C)nc3ccccc23)c(OC)c1
  PINK1 expr mod: -0.2%
COc1ccc(C2=Nn3c(nnc3-c3ccccc3F)SC2)cc1OC1CCOC1 (stereo not given)
  PINK1 expr mod: 17.7%
CC(=O)OC1CC2C(C)(C)C(=O)CC[C@]2(C)C2CC[C@@]3(C)C(c4ccoc4)OC(=O)C4OC43[C@]12C (stereo not given in full)
  PINK1 expr mod: -0.3%
COCCn1c(=O)c(-c2cc(F)cc(F)c2)nc2cnc(N3CCOCC3)nc21
  PINK1 expr mod: 1.5%
COc1ccc(-n2c(=O)c(-c3cccs3)nc3cnc(N4CCNCC4)nc32)cc1
  PINK1 expr mod: 10.3%
CCOC(=O)c1cccc(-n2cccc2/C=C2\NC(=O)N(CC(=O)O)C2=O)c1
  PINK1 expr mod: 2.9%
COc1cc(=O)n2c(c1C(=O)N(C)Cc1nccs1)CCN(Cc1cc3ccccc3s1)CC2
  PINK1 expr mod: 1.0%
FC(F)(F)c1ccccc1-c1nc(-n2ccnc2)c2ccccc2n1
  PINK1 expr mod: 1.3%
COc1ccc(NC(=O)N2CCC3(CC2)CCN(C(=O)c2cccc(F)c2)CC3)cc1
  PINK1 expr mod: -1.1%
COc1ncc2nc(-c3cc(F)cc(F)c3)c(=O)n(Cc3cccs3)c2n1
  PINK1 expr mod: 0.8%
COC(=O)N1CCC2(CCCN(C(=O)Nc3cccc(C#N)c3)C2)CC1
  PINK1 expr mod: 0.5%

Reformatted with tabs: part of the list above
smiles	PINK1 expr mod
Cc1c(C(=O)NCC2Cc3cccc(-c4cncnc4)c3O2)c(-c2ccccc2)nn1-c1ccccc1 (stereo not given)	-0.5%
COc1cccc(-c2ccc3ncnc(NCc4cccs4)c3c2)c1	0.0%&-0.8%
O=C(c1cc(C(F)(F)F)cc(C(F)(F)F)c1)N1CCC2(CCCN(c3ccccn3)C2)CC1	-0.3%
Cc1c(C(=O)N2CCC(Cc3ccccc3)CC2)sc2ncnc(NCc3ccccn3)c12	-0.3%
NC(=O)NCC(N)C(=O)O (stereo not given)	0.4%
COC(=O)N1CCC2(CCN(Cc3ccc(C#N)cc3)CC2)CC1	1.1%
O=c1c(-c2ccc(F)cc2)nc2cnc(N3CCNCC3)nc2n1C1CC1	0.9%

Continuation:
O=C(c1ccncc1)N1CCC2(CCCN(c3ccncc3)C2)CC1
  PINK1 expr mod: -0.7%
O=c1c(-c2ccc(F)cc2)nc2cncnc2n1C1CC1
  PINK1 expr mod: -0.6%
CCNc1ncc2nc(-c3ccc(OC)cc3)c(=O)n(Cc3cccc(OC)c3)c2n1
  PINK1 expr mod: 11.7%
Cc1oc(-c2cccc(NC(=O)c3ccccc3)c2)nc1CNC(=O)c1cnc2ccccn2c1=O
  PINK1 expr mod: 0.8%
Cc1ccccc1-c1cncnc1NCCN1CCOCC1
  PINK1 expr mod: -1.6%
CC(C)NC(=O)N1CCC2(CC1)CCN(C(=O)c1cccn1C)CC2
  PINK1 expr mod: -0.4%
COc1ccc(Oc2ncc3nc(C)c(=O)n(C[C@H]4CCCO4)c3n2)cc1
  PINK1 expr mod: 2.5%
COC(=O)CCCOc1ccc(Cl)cc1Cl
  PINK1 expr mod: -1.1%
COC(=O)C1C(O)CC[C@@H]2CN3CCc4c([nH]c5ccccc45)C3C[C@@H]12 (stereo not given in full)
  PINK1 expr mod: 0.7%
CN(C)Cc1ccccc1-c1nc(N(C)C)c2ccccc2n1
  PINK1 expr mod: -0.9%
COc1ccc(-c2nc3cnc(N4CCNCC4)nc3n(CCc3ccccc3)c2=O)cc1
  PINK1 expr mod: 10.5%
CC1CC[C@@]23CCC4(C)[C@@]5(C)CCC6C(C)(C)C(O)CC[C@@]6(C)C5C=C[C@@]4(OC2=O)C3C1C (stereo not given in full)
  PINK1 expr mod: -0.8%
COc1ccc(C(=O)N2CCC3(CC2)CN(C(=O)Nc2ccccc2)C3)cc1
  PINK1 expr mod: 0.4%
COc1ccccc1-c1ccc2ncnc(NCc3cnc(C)cn3)c2c1
  PINK1 expr mod: 1.6%
CN(C)c1ccc(-c2nc(NCCc3cnc[nH]3)c3ccccc3n2)cc1
  PINK1 expr mod: 4.3%

O=c1c(-c2ccc(Cl)cc2)nc2cncnc2n1Cc1ccc(F)cc1
  PINK1 expr mod: 5.6%
O=C1Cc2cc(S(=O)(=O)N3CCN(c4ccc(O)cc4)CC3)ccc2N1
  PINK1 expr mod: -0.9%
Cc1c(C(=O)N2CCN(C(C)C)CC2)sc2ncnc(NCc3ccco3)c12
  PINK1 expr mod: -0.2%
O=C(c1cnccn1)N1CCC[C@@]2(CCN(c3ccncc3)C2)C1
  PINK1 expr mod: 0.1%
O=C(c1ccco1)N1CCC2(CCCN(Cc3ccncc3)C2)CC1
  PINK1 expr mod: 0.1%
CCNc1ncc2nc(CCc3ccccc3)c(=O)n(-c3ccccc3)c2n1
  PINK1 expr mod: 2.9%
CCC1CN(CCNC(=O)c2ccc3c(c2)OCCO3)Cc2cc(OC)ccc2O1 (stereo not given)
  PINK1 expr mod: 0.5%
COc1ccc(-n2c(=O)c(-c3ccccc3)nc3cnc(N4CCN(C)CC4)nc32)cc1
  PINK1 expr mod: -0.4%
COc1cccc(-c2nc(N3CCN(C)CC3)c3ccccc3n2)c1
  PINK1 expr mod: -0.6%
Cc1nc2cnc(Oc3ccccc3)nc2n(C2CC2)c1=O
  PINK1 expr mod: 0.7%

Source: PubChem (National Center for Advancing Translational Sciences (NCATS))
